Screening data deposited in PubChem BioAssay by several laboratories.
PABP FP inh: PABP poly(A) RNA binding inhibitors, primary screen, biochemical, fluorescence polarization, uHTS; 1% of 290,000 active; inhibition, % at 35 µM;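 active = 50% or more with normal probe brightness, or confirmed in later tests; inconclusive = above 50% with abnormal brightness, or retests that disagree; inactive = below 50% or failed in later tests; about a fifth of its hits are not listed in these tables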;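 also: calls also rest on retests at 20 µM and on dose response follow-up; controls were probe without protein and protein plus probe with vehicle; some compounds called inactive have numbers as strong as hits; many hits fall short of the cut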
Target sequence (P11940 whole entry, looked up): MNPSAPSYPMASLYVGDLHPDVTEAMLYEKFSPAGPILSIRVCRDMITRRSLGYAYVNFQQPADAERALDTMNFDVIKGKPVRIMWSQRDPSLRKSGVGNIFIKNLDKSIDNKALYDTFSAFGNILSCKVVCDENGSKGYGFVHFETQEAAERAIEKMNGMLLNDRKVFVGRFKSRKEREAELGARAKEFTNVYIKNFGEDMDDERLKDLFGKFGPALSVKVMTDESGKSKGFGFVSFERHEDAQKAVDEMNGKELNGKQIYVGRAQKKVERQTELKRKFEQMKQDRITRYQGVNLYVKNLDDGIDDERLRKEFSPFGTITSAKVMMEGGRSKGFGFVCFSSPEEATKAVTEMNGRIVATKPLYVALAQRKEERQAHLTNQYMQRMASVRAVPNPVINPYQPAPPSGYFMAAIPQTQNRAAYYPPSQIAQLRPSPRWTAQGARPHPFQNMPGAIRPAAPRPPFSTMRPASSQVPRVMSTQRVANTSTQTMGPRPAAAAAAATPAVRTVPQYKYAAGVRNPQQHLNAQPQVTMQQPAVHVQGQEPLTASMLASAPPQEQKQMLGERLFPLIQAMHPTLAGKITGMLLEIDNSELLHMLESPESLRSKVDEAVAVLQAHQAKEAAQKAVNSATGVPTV
eIF4H inh: human eIF4H binding inhibitors, primary screen, translation initiation inhibitor project, biochemical, uHTS, fluorescence polarization. Eukaryotic translation initiation factor 4H (Homo sapiens), Q15056. eIF4H fluorescence polarization binding assay. inhibition, % at 35 µM. 0.94% of 290,000 active. AID 2012, 2009;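 active = 50% or more with normal probe brightness, or confirmed in later tests; inconclusive = above 50% with abnormal brightness, or retests that disagree; inactive = below 50% or failed in later tests; about a fifth of its hits are not listed in these tables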;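 also: calls also rest on retests at 20 µM and on dose response follow-up; 0% = protein and probe with vehicle and 100% = probe without protein; strong numbers were not always called active; many hits fall short of the cut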
CSC inhib: cancer stem cell viability inhibitors, primary screen, luminescence; cancer stem cell-like cells viability; inhibition, % at 7.5 µM; 1.1% of 300,000 active;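 active = mean at 75% or more and at least half the replicates too; inconclusive = mean and replicates disagree; tested in HMLE shEcad cells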;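 also: 0% = median of negative and 100% = median of positive control wells; the first replicate is given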
HIV Env fusion: inhibitors of HIV-1 Env-driven cell-cell fusion, primary screen, HeLa-JRFL effector, CEM21 target cells, luciferase; 1.1% of 360,000 active; inhibition, % at 12.3 µM;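 active = mean replicate inhibition score of at least 50 and every replicate individually at or above 50; inconclusive = only one of the two criteria met; inactive = mean below 50 and not all replicates reaching 50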;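 also: 0% = plate neutral controls and 100% = maraviroc near 300 nM; one replicate is shown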
Rce1 inhib: yeast Rce1p protease inhibitors, primary screen, biochemical, fluorescence, cell-free homogeneous | CAAX prenyl protease 2 (Saccharomyces cerevisiae (strain ATCC 204508 / S288c)), Q03530 | yeast membranes, quenched prenylated peptide cleavage fluorescence | calls only | 0.27% of 290,000 active;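 active = fall in fluorescence gain of 50% or more versus controls, with final raw signal at or below 3038400; inconclusive = same 50% fall but final raw signal above 3038400; inactive = fall in fluorescence gain under 50%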;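 also: plate controls were neutral control wells for no effect and wells lacking membranes for full effect; tested at 10 µM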
Target sequence (Q03530 whole entry, looked up): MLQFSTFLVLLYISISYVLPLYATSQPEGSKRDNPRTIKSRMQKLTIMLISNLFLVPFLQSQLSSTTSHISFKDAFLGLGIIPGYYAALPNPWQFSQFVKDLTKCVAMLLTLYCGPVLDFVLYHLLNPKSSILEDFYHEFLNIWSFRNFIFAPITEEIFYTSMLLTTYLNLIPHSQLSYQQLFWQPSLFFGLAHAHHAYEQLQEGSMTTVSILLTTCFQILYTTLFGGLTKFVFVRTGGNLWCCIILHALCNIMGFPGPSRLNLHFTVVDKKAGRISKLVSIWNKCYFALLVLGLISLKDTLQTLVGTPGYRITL
MT1-MMP act inh: blockers of MT1-MMP proenzyme processing, primary screen, HT1080 RFP-PRO-GFP cells, GFP/RFP fluorescence; Matrix metalloproteinase-14 (Homo sapiens), P50281; GFP/RFP ratio fluorescence, overnight; percent of plate control window, DMSO zero; GFP/RFP ratio change, % at 20 µM; 0.061% of 360,000 active;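 active = GFP/RFP ratio change of at least 30% with cell ATP level not reduced by more than half and red fluorescence within 50% of control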; also: strong numbers were not always called active
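Assay system: HT1080 cells carrying an RFP-PRO-GFP reporter | Dosing: Single dose of 20 µM compound, 1% DMSO final | Incubation: Cells overnight before dosing, compound overnight, 37 °C, 5% CO2 | Evaluation: GFP/RFP fluorescence ratio | Control set: DMSO and RFP-L50D-GFP cell wells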
UUG fidelity: modulators of yeast start codon fidelity, primary screen, whole organism, S. cerevisiae, single point, plate reader; S. cerevisiae UUG-firefly luciferase reporter, luminescence/redox ratio; activity score, % at 18.7 µM; 0.13% of 350,000 active; AID 602363, 2012;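 active = replicate mean at a twofold rise or more, about +100% in these data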;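 also: firefly luciferase made from a UUG start codon reports start codon fidelity; reporter light over untreated wells divided by growth signal over untreated wells; some hits fall short of that in this replicate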
MT1-MMP act inh RFP: further read-out of MT1-MMP act inh, marked with its call; RFP signal change, %; measured here: RFP expression control read;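 0 = vehicle wells; hits needed this value within 50% of zero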
* marks the source's active call; other numbers are inactive results; i = inactive; ? = inconclusive; . = no result given; + = active, no number.

SMILES	PABP FP inh	eIF4H inh	CSC inhib	HIV Env fusion	Rce1 inhib	MT1-MMP act inh	MT1-MMP act inh RFP	UUG fidelity
Clc1ccccc1C1=NCc2nncn2-c2sc(Br)cc21	.	.	-7.4	-19.5	i	-4.2	-1.1	-8.5
Cc1nc2c(-c3ccccc3)c(C)nn2c(C)c1CCC(=O)N1CCC2(CC1)OCCO2	1.4	-6.4	17.9	-28.6	i	0.7	4.2	-10.9
C=CCOc1ccc(CC2C(=O)N(C)C(=O)N(C)C2=O)cc1	1.1	4.7	7.9	23.6	.	0.4	4.0	-2.4
O=C(NCCN1CCCCC1)c1ccc(Cl)nc1Cl	4.6	1.9	-4.2	3.7	i	-5.5	4.3	.
COc1cc2c(C(=O)O)c(C)n(C)c2cc1Br	6.2	1.9	-7.0	-0.8	i	-1.1	-0.9	.
Cc1c(C(=O)Nc2ccccc2)cc(-c2ccccc2)n1CCCN1CCOCC1	-14.9	7.3	-1.6	3.1	.	1.8	1.8	-9.9
Clc1ccccc1CN1CCNCC1	0.1	4.4	0.3	-18.3	i	.	.	-7.4
Cc1ccc(C2=NN(CCC(=O)N3CCC4(CC3)OCCO4)C(=O)CC2)cc1	26.8	5.2	-5.2	-4.1	i	1.7	3.5	.
Cc1noc(C)c1CSCC(=O)Nc1ccc(C#N)c(Cl)c1	.	.	-14.4	12.4	.	1.4	-3.5	.
CCOC(=O)C(=O)NC1CCSC1=O (configuration not stated)	-9.9	-6.8	-5.1	.	i	5.0	4.4	-28.6
CCOC(=O)c1ccc(NC(=O)C2C3C=CC(O3)C2C(=O)O)cc1 (configuration not stated)	7.9	-6.6	-1.7	.	i	.	.	.
COc1ccc(OC(=O)N(C)C[C@@H]2OCc3ccccc3-c3c(n(C)c4ccccc34)C(=O)N([C@H](C)CO)C[C@@H]2C)cc1	.	.	.	68.8*	.	-3.4	1.2	-22.1
CN=C(SCC(=O)c1cccc(Cl)c1)c1c(O)n(C)c(=O)n(C)c1=O	2.4	6.6	4.5	17.2	i	5.8	-7.4	.
C#CC[N+]1(C)[C@@H]2CC(OC(=O)C(CO)c3ccccc3)C[C@H]1C(O)C2 (some centres not stated)	1.3	-12.2	-11.0	-4.3	i	-0.5	2.5	-15.6
O=c1[nH]c(=O)n(Cc2ccc(F)cc2)c(O)c1/C=N/Nc1ccccc1	-0.8	-15.0	78.8*	21.5	i	-0.4	6.6	.
CCn1ccnc1CN1CCCC(C(=O)c2cc(Cl)ccc2OC)C1 (configuration not stated)	0.9	3.0	-5.5	19.4	i	-12.4	-8.0	.
Cc1ccc(Cn2cc(C=O)c(-c3ccc(F)cc3)n2)cc1	-10.4	-12.0	15.2	3.3	i	-1.9	-7.5	-2.4
COC(=O)c1cccc(NC(=O)N2C[C@H]3C[C@@H](C2)c2cccc(=O)n2C3)c1	-13.8	-5.3	-10.5	.	i	-2.2	2.1	-18.0
COc1ccccc1N1C(=O)NC(=O)C2(Cc3cc(C)ccc3N(C)C2)C1=O (configuration not stated)	5.6	14.1	8.3	-42.7	.	6.0	6.6	3.4
O=c1[nH]c(=O)n(Cc2ccccc2)c(O)c1/C=N/NCCO	?	?	-4.5	-9.0	i	-10.6	5.9	-22.0

Compound profiles, as listed above:
Entry for C#CC[N+]1(C)[C@@H]2CC(OC(=O)C(CO)c3ccccc3)C[C@H]1C(O)C2 (some centres not stated) = PABP FP inh: 1.3; eIF4H inh: -12.2; CSC inhib: -11.0; HIV Env fusion: -4.3; Rce1 inhib: i; MT1-MMP act inh: -0.5; MT1-MMP act inh RFP: 2.5; UUG fidelity: -15.6
Entry for COc1cc2c(C(=O)O)c(C)n(C)c2cc1Br = PABP FP inh: 6.2; eIF4H inh: 1.9; CSC inhib: -7.0; HIV Env fusion: -0.8; Rce1 inhib: i; MT1-MMP act inh: -1.1; MT1-MMP act inh RFP: -0.9; UUG fidelity: .

(continued)
SMILES	PABP FP inh	eIF4H inh	CSC inhib	HIV Env fusion	Rce1 inhib	MT1-MMP act inh	MT1-MMP act inh RFP	UUG fidelity
COC(=O)C1=C(c2ccc(F)cc2OCc2ccccc2)C[C@@H]2CC[C@H]1N2C(=O)NCc1ccc(F)cc1	.	.	5.4	1.8	.	-10.4	-1.2	-6.7
CN(C)CC#CCOCCOCCC#N	-2.3	5.0	-5.5	.	i	0.7	4.3	.
CC1(C)C(c2ccccc2)=NC(c2cccnc2)N1O (configuration not stated)	-9.6	-3.5	3.6	-35.8	i	1.8	1.6	-5.3
C/C(CCc1c[nH]c2ccccc12)=N\O	-1.9	-6.7	-7.1	-79.0	i	1.5	2.4	-5.3
FC(F)(F)c1ccc2c(c1)N(CCCN1CCN(CCCl)CC1)c1ccccc1S2	25.4	-4.8	43.9	.	i	-3.1	-4.1	.
COc1ccc(S(=O)(=O)N2Cc3ccccc3-n3nncc3C2)cc1	.	.	.	33.8	.	2.4	-7.0	-9.1
CC(C)CN1CCN(Cc2ccccc2C(F)(F)F)CC1CCO (configuration not stated)	-8.3	-1.7	11.5	7.6	i	0.3	2.9	.
Cc1ccccc1CC(=O)N(CCN(C)C)CC1CCCN(Cc2ccccc2F)C1 (configuration not stated)	6.4	8.0	-10.5	6.0	i	0.6	0.9	10.0
Cn1c(O)c(C2=NN(C(=O)CCl)C(c3ccccc3)C2)c(=O)n(C)c1=O (configuration not stated)	2.7	-3.1	6.2	4.3	i	-2.0	-6.4	-22.7
CC(=O)NCC(=O)Nc1ccc(Br)cc1C(=O)c1ccccc1	2.5	-2.2	-4.5	13.5	i	0.0	1.2	.
COc1ccc(C(CNC(=O)CCc2ccsc2)N(C)C)cc1 (configuration not stated)	7.4	-0.1	-10.2	-1.2	i	-0.5	0.5	-36.1
COP(=O)(NC(C)=O)SC (configuration not stated)	.	.	.	3.9	.	-0.6	4.7	-5.2
C=CCn1c(O)c(C(C)=NCCN2CCCCC2)c(=O)[nH]c1=O	-4.9	2.2	-2.2	-13.2	i	-4.5	2.1	-13.8
CCOC(=O)C1(CCc2ccccc2)CCN(Cc2csc(C(C)=O)c2)CC1	0.6	-24.4	28.0	8.9	i	8.8	-5.1	.
Cc1nc2c(c(C)nn2-c2ccccc2)c(C)c1CCC(=O)N1CCC2(CC1)OCCO2	-5.1	-7.7	-6.3	.	i	-1.8	-2.5	-5.1
CCCC(=O)NC(Oc1ccccc1Cl)C(Cl)(Cl)Cl (configuration not stated)	-2.4	-10.0	2.9	.	i	5.3	-3.1	.
CC1CN(c2ccc([N+](=O)[O-])c3cccnc23)CC(C)N1 (configuration not stated)	15.4	20.1	3.8	.	i	0.8	1.1	-28.9
Cc1cccc(NC(=S)N2CC3CC(C2)c2cccc(=O)n2C3)c1C (configuration not stated)	-8.7	0.2	-1.9	2.1	i	2.1	4.2	.
COc1ccc(CNCCc2c[nH]c3ccccc23)cc1OC	11.6	-0.9	-2.2	34.0	i	-4.3	-0.8	-8.3
CNP(=O)(Oc1ccccc1)OC12CC3CC(CC(C3)C1)C2 (configuration not stated)	-7.6	5.2	-11.3	9.2	i	-3.6	-4.2	.
COC(=O)C1=C(c2cccc(OCc3ccccc3)c2)C[C@@H]2CC[C@H]1N2C(=O)NCc1cccc(OC)c1	.	.	27.8	-48.6	.	-3.2	-13.5	-5.2
CC(=NCc1cccnc1)c1c(O)n(Cc2ccccc2)c(=O)[nH]c1=O	-0.4	4.2	-5.9	23.1	i	-1.5	4.8	-5.5
O=C1NCN(c2ccccc2)C12CCN(C(CCc1ccccc1)c1nnnn1Cc1ccccc1)CC2 (configuration not stated)	.	.	.	-80.5	.	8.5	7.1	-7.9
CCn1c(C)c(C(=O)O)c2cc(OC)ccc21	3.9	-3.0	10.9	.	i	-3.7	1.8	-16.2
C1=NCCCN2CCCCC12 (configuration not stated)	.	.	.	-8.6	.	-1.1	2.3	-13.9
COc1cc(N2CCOCC2)ccc1/C=C1\C(=O)NC(=O)N(Cc2cccs2)C1=O	3.7	?	-15.7	5.7	i	12.2	21.3	.
CCC(=NCc1ccco1)c1c(O)n(-c2ccccc2C)c(=O)[nH]c1=O	-3.1	-7.8	8.6	-3.6	i	-2.2	-0.9	-11.3
Cc1ccc(Cl)cc1N1CCN(CCN)CC1	-1.2	-16.8	-7.3	.	i	3.5	-1.2	.
CCC(=O)CC(c1ccc([N+](=O)[O-])cc1)c1c(O)c2ccccc2oc1=O (configuration not stated)	14.0	-3.4	12.3	-4.0	i	5.4	4.5	-4.5
COc1ccc(C(=O)C2CCCN(Cc3cnc(C)s3)C2)cc1OC (configuration not stated)	-0.4	-11.3	-1.5	11.0	i	0.3	1.2	.
CCC(C)C(NC(=O)CCCNC(=O)CCC(=O)OC1O[C@H]2OC3(C)CC[C@H]4[C@H](C)CCC(C1C)C24OO3)C(=O)O (some centres not stated)	-2.8	-4.1	5.7	58.0*	i	-8.7	-13.9	23.2
Cc1c(N=Nc2c(O)[nH]c(=S)[nH]c2=O)c(=O)n(-c2ccccc2)n1C	16.2	-3.5	19.5	16.1	i	1.6	-2.9	-7.7
C=C(C)c1cccc(C(C)(C)NC(=O)NC2CN3CCC2CC3)c1 (configuration not stated)	11.1	-1.5	-1.8	-9.9	i	3.1	6.5	8.9
COc1cccc(OC)c1C(=O)Nc1nc(N)n(-c2ccccc2)n1	-4.7	-3.9	-10.7	-56.7	i	3.2	3.0	61.0
Cc1[nH]c2ccccc2c1C(=O)CN1CC=C(c2ccccc2)CC1	13.2	9.7	-10.1	-5.6	i	-5.4	-8.4	-14.1
CCOC(=O)c1c(-c2ccc(OC)cc2)oc2ccc(OC(=O)N(C)C)cc12	-6.0	-7.5	76.1*	-7.1	+	-6.6	1.9	2.7
Cc1cc(C)cc(N2C(=O)NC(=O)/C(=C\c3cccn3-c3ccc(Cl)cc3)C2=O)c1	-7.7	-2.2	.	.	i	-5.2	0.6	-3.0
CN1C(=O)C(C2c3ccccc3C(=O)N2Cc2ccc([N+](=O)[O-])cc2)C(=O)N(C)C1=O (configuration not stated)	0.4	5.9	-12.0	-23.5	i	2.0	0.9	-6.5
CC(C(=O)Nc1ccc(Br)cc1C(=O)c1ccccc1)N1CCOCC1 (configuration not stated)	-0.2	-1.0	-29.2	-21.8	i	-0.9	3.5	-11.4
Cc1nn(C)c(C)c1P(=S)(c1c(C)nn(C)c1C)N(C)C	1.5	-3.1	-5.2	.	i	-5.1	3.9	-19.6
OC(CNCCc1c[nH]c2ccccc12)C(F)(F)F (configuration not stated)	3.3	-3.4	4.6	-54.1	i	4.4	1.2	-3.7
CSc1ncc(/C=C2/C(=O)NC(=O)N(c3ccc(Cl)cc3)C2=O)cn1	-2.2	5.9	.	21.1	.	0.3	4.0	.
CCN(CC(=O)Nc1ccc(C#N)c(Cl)c1)CC(=O)NC(C)(C)C	3.2	-3.6	-4.3	0.5	i	9.1	1.1	-5.3
CC1C(c2ccccc2)OC(=O)N1C (configuration not stated)	.	.	.	-16.7	.	-2.0	2.5	-20.4
O=C(Nc1ccccc1)c1c(O)[nH]c(=O)[nH]c1=O	.	.	6.6	0.1	i	0.7	2.7	-6.2
O=C1NC(=O)N(CC2CCCO2)C(=O)/C1=C/c1cccs1 (configuration not stated)	-6.3	11.5	1.5	-38.8	i	4.4	5.4	.

Only part of the results is shown; rates above refer to the full screens.
